Arbovirus inh: blocks arbovirus infection; arbovirus infection cell-based antiviral screen; inhibition, % at 10 µM; 200,000 compounds, 0.37% hits;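 active = inhibition from about 30%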;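 also: bluetongue infection of BSR cells; cell survival read as ATP light after 72 h; 0% = infected wells without compound and 100% = uninfected wells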
Mtb betalactam: beta-lactam sensitization of Mtb H37Rv; inhibition, % at 25 µM; AID 434955; M. tuberculosis H37Rv growth with meropenem, percent inhibition; hits of this screen are not shown here; 330,000 compounds, 0.27% hits;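 active = about 74% or more and at least 40 points above the plate without the antibiotic, then above 30% in a dose series; inconclusive = first-round hits that could not be retested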;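 also: growth measured after seven days incubation then overnight dye step; 0% = bacteria only wells and 100% = bacteria with antibiotic; twin plates without the antibiotic show which effects depend on it; some results filed as inactive read as strong as hits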
RecA splice inh: inhibitors of M. tuberculosis RecA intein splicing; cell-free RecA intein splicing, fluorescence; inhibition, %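 (about 9 µM by stock and volumes)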; P9WHJ3; 290,000 compounds, 0.75% hits; in the data active = inhibition above about 30%; inconclusive = no clear call, values can overlap the other calls;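 also: 0% = vehicle wells and 100% = reference inhibitor control wells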
Target sequence (P9WHJ3 whole entry, looked up, canonical isoform): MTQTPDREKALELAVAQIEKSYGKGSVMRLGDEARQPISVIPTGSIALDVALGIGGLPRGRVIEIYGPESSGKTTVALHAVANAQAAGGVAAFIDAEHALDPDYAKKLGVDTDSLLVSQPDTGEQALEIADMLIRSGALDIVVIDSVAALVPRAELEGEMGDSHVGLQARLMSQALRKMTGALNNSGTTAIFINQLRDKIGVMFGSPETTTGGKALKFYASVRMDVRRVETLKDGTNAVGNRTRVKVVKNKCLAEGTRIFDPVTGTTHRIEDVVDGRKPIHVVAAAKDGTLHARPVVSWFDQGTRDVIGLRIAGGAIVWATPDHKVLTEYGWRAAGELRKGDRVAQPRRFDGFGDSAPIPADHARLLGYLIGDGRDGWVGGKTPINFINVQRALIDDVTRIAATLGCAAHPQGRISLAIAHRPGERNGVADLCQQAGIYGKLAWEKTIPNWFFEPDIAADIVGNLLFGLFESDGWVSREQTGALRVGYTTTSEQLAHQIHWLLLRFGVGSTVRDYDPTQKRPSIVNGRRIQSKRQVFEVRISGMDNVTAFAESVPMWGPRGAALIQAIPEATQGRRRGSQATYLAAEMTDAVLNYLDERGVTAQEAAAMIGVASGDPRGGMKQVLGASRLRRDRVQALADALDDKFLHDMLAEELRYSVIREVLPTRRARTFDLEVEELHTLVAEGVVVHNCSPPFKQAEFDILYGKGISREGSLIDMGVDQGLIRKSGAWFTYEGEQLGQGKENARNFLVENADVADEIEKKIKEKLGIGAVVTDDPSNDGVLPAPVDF
YopH inh: YopH (Yersinia) phosphatase inhibition; fluorescence Ex485/Em525; inhibition, %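 (about 10 µM by stock and volumes)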; 140,000 compounds, 0.16% hits; AID 898;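 active = inhibition of 50% or more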;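 also: controls were vehicle for no effect and minimum signal wells for full effect; inactives centre near -20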
Mtb growth: M. tuberculosis H37Rv growth inhibitors, H37Rv strain (AID 1626); M. tuberculosis H37Rv growth inhibition; higher % means a stronger effect; one-dose inhibition, % at 10 µM; IC50 in µM for titrated hits; 220,000 compounds, 0.95% hits;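 active = confirmed in a dose series; inconclusive = inhibition above 80% but not taken into the dose series; inactive = below 80% or under 30% at every dose of the series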;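 also: bacteria incubated seven days before Alamar blue readout; 0% = bacteria only wells and 100% = bacteria with antibiotic wells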
Arbovirus inh repeat: further read-out of Arbovirus inh, marked with its call; inhibition, %; measured here: 10K subset replicate screen; many hits read low in the repeat;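 first of two repeat runs on a subset; 0% = infected and 100% = uninfected wells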
The depositor's hits bear a star; ? = inconclusive; · = not tested or not shown.

Start of the data: the first six compounds (preview)
SMILES	Arbovirus inh	Mtb betalactam	RecA splice inh	YopH inh	Mtb growth	others
CCN(CC)S(=O)(=O)c1ccc(C)c(NC(=O)COC(=O)C=C(C)C)c1	·	-5	3.9	·	-1%
O=C1/C(=C\c2ccc3ccccc3c2)CCCc2ccccc21	-16	1	3.0	-4	-6%
O=C(Nc1ccccn1)c1cc2cc([N+](=O)[O-])ccc2s1	5	4	1.4	·	4%
CCOc1ccc2nc(NC(=O)C3CCN(S(=O)(=O)c4cnc[nH]4)CC3)sc2c1	30*	?	0.8	-6	-8%
COc1cc(O)c(C(CC(=O)N2CCCCC2)c2cc(OC)c(OC)c(OC)c2)c(OC)c1 (configuration not stated)	·	-2	-1.1	·	-9%
C[C@]12CC[C@@H]3c4ccc(O)cc4[C@@H](O)C[C@H]3[C@@H]1CC[C@@H]2O	4	4	-1.3	-56	0%

The list itself (from the top)
SMILES	Arbovirus inh	Mtb betalactam	RecA splice inh	YopH inh	Mtb growth	others
CCN(CC)S(=O)(=O)c1ccc(C)c(NC(=O)COC(=O)C=C(C)C)c1	·	-5	3.9	·	-1%
O=C1/C(=C\c2ccc3ccccc3c2)CCCc2ccccc21	-16	1	3.0	-4	-6%
O=C(Nc1ccccn1)c1cc2cc([N+](=O)[O-])ccc2s1	5	4	1.4	·	4%
CCOc1ccc2nc(NC(=O)C3CCN(S(=O)(=O)c4cnc[nH]4)CC3)sc2c1	30*	?	0.8	-6	-8%
COc1cc(O)c(C(CC(=O)N2CCCCC2)c2cc(OC)c(OC)c(OC)c2)c(OC)c1 (configuration not stated)	·	-2	-1.1	·	-9%
C[C@]12CC[C@@H]3c4ccc(O)cc4[C@@H](O)C[C@H]3[C@@H]1CC[C@@H]2O	4	4	-1.3	-56	0%
CCC1CCCCN1Cc1nc2c(c(=O)n(C)c(=O)n2C)n1Cc1cccc2ccccc12 (configuration not stated)	-4	-4	10.0	·	-1%
NCCNc1ccc(C(=O)N2c3ccccc3Sc3ccccc32)cc1[N+](=O)[O-]	·	11	3.1	·	·
O=C(NC1CCCC1)c1cc(-c2ccc(F)cc2)on1	·	4	0.5	·	·
COc1ccc(NC(=O)CC(NCCc2ccccc2)C(=O)O)c(OC)c1 (configuration not stated)	1	0	2.2	-34	-1%
COC(=O)CCS(=O)(=O)c1ccc(NC(C)=O)cc1	3	1	-5.1	-3	-3%
C=CCNC(=O)COC(=O)CNC(=O)c1cc(Cl)cc([N+](=O)[O-])c1	10	-8	-0.7	·	3%
COc1ccc(Cc2noc(CN3CCCN(C4Cc5ccccc5C4)CC3)n2)cc1OC	-3	-1	10.0	·	5%
CCOc1ccc(S(=O)(=O)n2cc(-c3ccccc3)c(N)n2)cc1	0	-2	0.7	-2	-5%
O=C(CCl)N1N=C(c2cccs2)CC1c1ccco1 (configuration not stated)	-36	100	63*	·	78%
COc1ccc2c3c([nH]c2c1)C(C)NCC3 (configuration not stated)	3	-4	-133	·	4%
O=C(Nc1ccccc1)C1CCN(C(=O)c2ccc([N+](=O)[O-])cc2)CC1	-1	3	-1.8	·	3%
CN(C)S(=O)(=O)c1ccc(NC(=O)COC(=O)C2CC3CCCC(C2)C3=O)cc1 (configuration not stated)	2	3	1.7	·	-1%
CC1=NN(c2ccccc2)C(=O)/C1=C/c1cc(C)n(C2CC2)c1C	2	4	20	·	8%
COC(=O)c1c(NC(=O)COC(=O)CCS(=O)(=O)c2ccc(C)cc2)sc(C)c1C	-10	3	2.2	5	4%
COc1ccc(Cn2c(CCC(=O)Nc3ccc(C)c(C)c3)nc3cccnc32)cc1	-4	1	·	6	6%
Cc1ccc(S(=O)(=O)N(Cc2ccccc2)c2ccccc2C(=O)NCc2ccco2)cc1	-5	0	1.7	-23	-6%
Cc1snc(S(=O)(=O)/C(C#N)=N\Nc2ccccc2)c1C#N	-1	-3	1.0	-38	-12%
CC(C)n1c(CNC(=O)c2ccccc2)nc2ccccc21	1	-3	1.3	-33	4%	Arbovirus inh repeat=1
NC(=O)C1CCN(c2cc(Cl)ccc2[N+](=O)[O-])CC1	·	11	1.2	·	7%
CCCCCC1CC(CC(=O)NC(=S)Nc2ccc([N+](=O)[O-])cc2)C(=O)O1 (configuration not stated)	8	93	-1.2	3	25%
CCOC(=O)CC(=O)CSc1nc2c(sc(=S)n2-c2ccc(OCC)cc2)c(=O)[nH]1	60*	-6	-1.3	-7	-2%
Cc1c(CCO)c(=O)n(C)n1C(=O)c1ccc(F)cc1	11	-2	14	-18	-1%
O=c1c2cc(-c3ccccc3)sc2ncn1-n1cccc1	-9	0	-0.3	-5	4%
CCCC(=O)Nc1sc2c(c1C#N)CCCC2	-13	12	0.1	27	2%
Cc1cccc(NC(=O)c2ccc(S(=O)(=O)N3CCN(C)CC3)cc2)c1C	·	-11	3.7	·	·
CCOc1ccc(NC(=O)NNC(=O)COc2ccc3ccccc3c2)cc1	·	-27	-0.8	·	·
CC(NS(=O)(=O)/C=C/c1ccccc1)c1ccccc1 (configuration not stated)	13	2	0.9	·	10%
CC(OC(=O)CCc1nc2ccccc2[nH]c1=O)C(=O)c1ccccc1 (configuration not stated)	2	-2	-0.2	-16	-9%
CCOc1cc(/C=C/C(=O)c2ccc(O)cc2)ccc1OCC(=O)N(C)C	24	-10	2.1	-14	8%
COc1ccc(OC)c(NC(=O)CCN2CCN(c3ccccc3)CC2)c1	1	9	1.8	-28	-1%
O=C1CC(c2ccccc2)Sc2nc(-c3ccccc3)c(-c3ccccc3)n21 (configuration not stated)	4	-3	5.1	-23	-12%
O=C(Cn1c(=O)sc2ccccc21)N1CCOCC1	-4	2	0.5	-44	-2%	Arbovirus inh repeat=-1
CCC(=O)Nc1ccc(/C(C)=N/NC(=O)c2c(Br)c(C)nn2C)cc1	-3	7	-1.8	-25	17%
COc1ccccc1N1CCN(C(=O)c2ccc(CN3CCc4ccccc4C3)cc2)CC1	-13	?	-1.4	-3	2%
Cc1ccc(C(=O)NCC(=O)OCCOc2cccc(Cl)c2)cc1	·	1	1.0	·	·
CCOc1ccc(OCCCC(=O)Nc2nc3ccccc3[nH]2)cc1	3	2	1.8	·	7%
CCOc1ccccc1-n1c(O)c(C=Nc2ccc(N(CC)CC)cc2)c(=O)[nH]c1=O	-6	50	-7.6	-21	-4%
Cc1nc(NC(=O)c2ccc(Cl)cc2)sc1Cc1ccc2c(c1)OCO2	-22	3	-1.7	-29	0%
CN1CCN(C(=O)CSc2nc3c(c(=O)n(C)c(=O)n3C)n2C)CC1	·	-1	-2.0	·	·
Nc1cc(=O)[nH]c(SCC(=O)Nc2cccc(Cl)c2Cl)n1	-1	-5	0.6	·	-3%
CN(C(=O)COC(=O)c1cccc(S(=O)(=O)N2CCCCC2)c1)C1CCS(=O)(=O)C1 (configuration not stated)	·	-3	-0.4	·	·
CC(C)CCNC(=O)C1CCC(CNc2c(N3CCCC3)c(=O)c2=O)CC1 (configuration not stated)	·	-5	-0.8	·	2%
Cc1c(NS(=O)(=O)c2cc(C(=O)NCc3cccnc3)cc(Cl)c2Cl)c(=O)n(-c2ccccc2)n1C	·	-9	0.1	·	·
O=C(COc1ccccc1[N+](=O)[O-])Nc1ccc(N2CCN(C(=O)c3cccs3)CC2)cc1	1	-9	-1.6	·	5%
CCN(CC)c1ccc(NC(=O)c2cccc(C)c2OC)c(C)c1	-4	13	-2.3	3	11%
NC(=O)C1CCN(C(=O)CCSc2ccccc2)CC1	-2	0	-4.6	-15	-3%
COc1ccccc1OCC(=O)NC1CCCCCC1	-12	0	-6.4	0	10%	Arbovirus inh repeat=0
O=C(OCCNc1nc(-c2ccccc2)nc2ccccc12)c1cccnc1	11	6	3.4	·	-6%
O=C(NCCSc1ccccc1)c1ccccc1	2	-8	4.1	27	-19%
Cc1[nH]c2ccccc2c1C(C#N)(C#N)C1C(=O)c2ccccc2C1=O	·	24	42*	·	6%
CN(C)S(=O)(=O)c1cccc(NC(=O)c2cc(=O)[nH]c(=O)[nH]2)c1	·	6	-1.0	·	·
O=S(=O)(c1ccc2ncn(O)c2c1)N1CCOCC1	6	-4	-4.5	·	-2%
COc1ccc(F)cc1S(=O)(=O)Nc1cc2c3c(c1)CC(=O)N3CCC2	·	-2	26	·	·
Cc1ccc2c(c1)c1c(n2CC(O)CNC(C)(C)C)CCCC1 (configuration not stated)	-49	·	·	-38	3%

The closing 2 compounds of the part above open the next one.
SMILES	Arbovirus inh	Mtb betalactam	RecA splice inh	YopH inh	Mtb growth	others
COc1ccc(F)cc1S(=O)(=O)Nc1cc2c3c(c1)CC(=O)N3CCC2	·	-2	26	·	·
Cc1ccc2c(c1)c1c(n2CC(O)CNC(C)(C)C)CCCC1 (configuration not stated)	-49	·	·	-38	3%
Cc1ccc(S(=O)(=O)Nc2cccc(CP(=O)(c3ccccc3)c3ccccc3)c2)cc1	·	-2	3.0	·	-6%
CCCc1cc(=O)[nH]c(SCC(=O)Nc2ccc(OC(F)F)cc2)n1	6	-1	-3.9	-7	2%
CCOC(=O)C(=O)Nc1ccc(OCc2ccccc2)cc1	3	61	-0.5	·	13%
CCSc1cc(C)nc2c(-c3ccc(Cl)cc3)c(C)nn12	0	-3	·	-3	1%
O=C(CSc1nncs1)N1CCN(S(=O)(=O)c2ccccc2)CC1	3	-4	-6.1	·	2%
CCC(=O)c1ccc(OCC(=O)Nc2ccccc2N2CCCCC2)cc1	·	-9	-0.6	·	·
Cc1nnnn1-c1ccc(CC(=O)O)cc1	0	4	·	·	-4%
COc1ccc2oc(C(=O)N(CC(C)C)C3CCS(=O)(=O)C3)c(C)c2c1 (configuration not stated)	·	-2	-0.9	·	·
COc1cc(C(=O)N[C@@H](Cc2c[nH]c3ccccc23)C(=O)O)cc(OC)c1OC	·	-5	-0.3	·	·
Cc1ccc(Nc2ncccc2C(N)=O)cc1[N+](=O)[O-]	5	4	·	-24	3%
COC(=O)c1nc(NC(=O)C(C)C)n[nH]1	2	2	1.1	-40	9%
CC(C)NC(=S)N/N=C/c1sc(N2CCCCC2)nc1-c1cccs1	4	7	4.1	-3	1%
COc1ccc(C2(CNC(=O)c3ccccc3[N+](=O)[O-])CCOCC2)cc1	18	-1	-0.9	·	6%
COc1cc(C2C3=C(CC(C)(C)CC3=O)OC3=C2C(=O)CC(C)(C)C3)cc([N+](=O)[O-])c1O	11	-4	0.1	·	-2%
CCOc1ccc(C(=O)NCC(=O)OC2CCOC2=O)cc1OCC (configuration not stated)	9	-4	-4.1	7	-2%
COc1ccc(-c2nc3ccccc3o2)cc1NC(=O)c1ccc(Br)o1	-11	32	2.2	-36	-2%
C=CCNC(=O)/C(C#N)=C/c1c(N2CCN(c3cccc(Cl)c3)CC2)nc2c(C)cccn2c1=O	·	-6	-25	·	·
O=C(CNCCO)NC12CC3CC(CC(C3)C1)C2	2	-12	1.5	-39	-12%
O=C(N/N=C/c1ccc(O)cc1)c1ccc(NC(=O)c2ccccc2Br)cc1	-12	88	-0.9	-3	-4%
COC(=O)/C(C#N)=C/c1ccc(N2CCOCC2)c([N+](=O)[O-])c1	·	1	-2.1	·	-5%
CC(C)CCCN1C(Nc2ccccc2)=NC[C@@H]1CC(C)C	·	-3	-2.1	·	·
Cn1cc(CN2CCCC(C(=O)c3nccn3C)C2)c(-c2cccc(Cl)c2)n1 (configuration not stated)	6	-3	-0.2	·	4%
Cc1ccccc1OCC(=O)OCC(=O)Nc1ccc(N2CCOCC2)cc1	0	5	-1.0	·	-6%
O=C(O)C1CCC(CNCc2ccccc2Cl)CC1 (configuration not stated)	-3	-6	-3.0	-32	6%
Cc1nn(-c2ccccc2)nc1C(=O)NN	·	4	0.5	·	-5%
O=C(CN1CCN(c2ccccn2)CC1)Nc1cccc(Cl)c1Cl	·	?	-0.1	·	·
Cc1cc(=O)n(C(C)(C)C)c(=O)n1Cc1ccccc1	·	-5	-2.6	·	·
COc1cc(C(=O)Nc2sc3c(c2C(=O)O)CCC(C)C3)cc(OC)c1OC (configuration not stated)	·	28	-6.5	·	·
O=C(COC(=O)CNC(=O)c1ccccc1Cl)Nc1ncc(C(F)(F)F)cc1Cl	2	0	19	-16	-5%
CCOC(=O)c1ccc(-n2c(C)nc3ccccc3c2=O)cc1	8	-2	2.9	-5	-4%
CCN=C1SC(CC(=O)Nc2ccc(N3CCOCC3)cc2)C(=O)N1CC (configuration not stated)	-7	-20	0.2	-22	-16%
CC(=O)NC1C(Oc2ccccc2C)OC2COC(c3ccco3)OC2C1O (configuration not stated)	5	-2	4.8	-26	-12%
Cc1cccc(N2CCN(C(=O)n3ccnc3)CC2)c1C	-3	6	1.8	-24	15%
COC(=O)c1ccccc1NC(=O)Cc1nc(-c2ccccc2)sc1-c1ccc(C)cc1	16	0	2.6	-33	6%
CC(C)(CNC(=O)c1cc(Cl)c(O)c(Cl)c1)N1CCCCC1	·	5	1.5	·	·

These rows are one share of the data (hit frequency here may not be typical).
